Bioassay records from PubChem BioAssay.
Calb biofilm kill = mixtures killing C. albicans biofilm. C. albicans biofilm persisters + clotrimazole, fluorescence viability; primary screen in compound mixtures of four per well. inhibition, % at 7.6 µM. 0.02% of 120,000 active;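 active = inhibition above 30.3% in the primary screen of four-compound pools, then above 30% when the compound was retested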;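 note: compounds exposed to preformed 24 h biofilms for 48 h; the number belongs to the whole pool; some results filed as inactive read as strong as hits; inactives centre near 12; 0% = biofilm with clotrimazole alone and 100% = kill control; retested singly at about 60 µM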
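Test system: C. albicans biofilms. Buffer or medium: RPMI/MOPS medium, pH 7.0. Timing: 48 h compound exposure at 37 °C. Technique: Alamar Blue fluorescence. Evaluation: percent inhibition of biofilm viability.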
The depositor's hits bear a star. A portion of the library, so the mix of outcomes need not match the whole.

SMILES	Calb biofilm kill
O=C(N/C(=C/c1cccnc1)C(=O)N1CCOCC1)c1ccccc1F	8.4
C[C@H]1C=C(C(=O)N2CCOCC2)O[C@@H](OCc2ccc(CO)cc2)C1	12.1
C[C@H]1[C@H](C)CC[C@]2(C)CC[C@]3(C)C(=CC[C@@H]4[C@@]5(C)CC[C@@H](O)[C@](C)(C(=O)O)[C@@H]5CC[C@]43C)[C@H]12	13.2
CCOc1ccc(C(=O)NC(=S)Nc2ccc(NC(=O)c3ccco3)c(C)c2)cc1[N+](=O)[O-]	20.3
O=C(Nc1cccc(Cl)c1)Nc1nnc(CC2=CCCCC2)s1	7.7
COc1ccccc1-n1cnnc1SCC(=O)Nc1cccc(S(=O)(=O)N2CCCCC2)c1	8.8
Cc1ccc(Nc2c(-c3ccccn3)nc3cccc(C)n23)cc1	18.2
COc1cc(C(=O)NCC(=O)N/N=C(/C)c2cccs2)cc(OC)c1OC	-3.5
COc1cc(/C=C2\SC(=S)N(NS(=O)(=O)c3ccc(C)cc3)C2=O)cc(OC)c1OC	5.2
NS(=O)(=O)c1cccc(NC(=O)COC(=O)/C=C/c2ccco2)c1	-12.5
O=C(CSc1ccc(-c2ccc(F)cc2)nn1)NCC1CCCO1 (stereo unspecified)	3.2
CCc1ccccc1NC(=O)c1ccc([N+](=O)[O-])s1	4.5
CCc1ccc(C2C(C#N)=C(N)N(N(C)C)C3=C2C(=O)CCC3)s1 (stereo unspecified)	10.6
CC(C)CCN1CCN(Cc2cccc3cccnc23)CC1CCO (stereo unspecified)	3.3
O=C(OCc1cccc([N+](=O)[O-])c1)c1cc(=O)[nH]c2ccccc12	4.8
O=C(Nc1ccccc1)c1nccn1Cc1ccc(F)cc1	12.9
Cc1ccccc1OCC(=O)OCC(=O)NCc1cccs1	9.2
CN1/C(=C/C(=S)NC(=O)C2CCC2)C(C)(C)c2ccccc21	28.5
CC(=O)NS(=O)(=O)c1ccc(NC(=S)NC(=O)CC(C)C)cc1	0.4
COc1cc(C(=S)N2CCCC2)cc(Cl)c1OCC(=O)Nc1ccc(C)cc1C	14.8
Nc1nc(NS(=O)(=O)c2ccc(Cl)cc2)nn1-c1ccccc1	12.6
O=C(O)c1ccc(CNCc2ccc(Cl)cc2)cc1	19.8
CC(O)CNCCOc1cccc(Oc2ccccc2)c1 (stereo unspecified)	16.1
COCCCn1c(=NC(=O)c2ccccc2)c(C#N)cc2c(=O)n3cccc(C)c3nc21	19.4

Reformatted in markdown: entries from further up.
| SMILES | Calb biofilm kill |
| --- | --- |
| CCc1ccc(C2C(C#N)=C(N)N(N(C)C)C3=C2C(=O)CCC3)s1 (stereo unspecified) | 10.6 |
| CC(C)CCN1CCN(Cc2cccc3cccnc23)CC1CCO (stereo unspecified) | 3.3 |

Other results.
SMILES	Calb biofilm kill
CCOC(=O)C1(Cc2ccc(Cl)cc2)CCN(C(=O)c2cc(C)nc(C)n2)CC1	7.4
COc1ccc(CCNC(=O)c2cc(-c3cc(C)cc(C)c3O)n[nH]2)cc1OC	19.4
CCN(CC)CCCNC(=S)N(Cc1cccnc1)Cc1cc2cc(C)ccc2[nH]c1=O	21.2
Cc1ccc(C(=O)Nc2cc3ccccc3oc2=O)cc1	6.3
O=C(Nc1ccc(OCC(=O)N2CCOCC2)cc1)Nc1cccc2ccccc12	3.9
C/C(=N\NC(=O)c1ccc([N+](=O)[O-])cc1Cl)c1ccccc1	9.5
C[N+]1(CC(O)COc2ccccc2)CCN(C(=O)c2ccc([N+](=O)[O-])cc2)CC1 (stereo unspecified)	14.6
CCCCN(C(=S)NC(=O)c1cc(OC)c(OC)c(OC)c1)c1c(N)n(Cc2ccccc2)c(=O)[nH]c1=O	0.1
CCCCOc1ccc(OC(=O)Nc2cc(Cl)ccc2OC)cc1	21.5
Cc1ccc(C2CC(c3ccccc3)=NN2C(=O)CSc2nnc(-c3ccncc3)n2C)o1 (stereo unspecified)	14.1
O=C(O)C1C2CCCCC2=C2CCCCC2C1C(=O)c1ccccc1 (stereo unspecified)	19.9
CN1CC(=O)N(CC(=O)N2N=C(c3ccc(Cl)cc3)CC2c2ccco2)C1=O (stereo unspecified)	9.8

No new results follow: an excerpt of the list.
SMILES	Calb biofilm kill
COc1ccc(CCNC(=O)c2cc(-c3cc(C)cc(C)c3O)n[nH]2)cc1OC	19.4
CCN(CC)CCCNC(=S)N(Cc1cccnc1)Cc1cc2cc(C)ccc2[nH]c1=O	21.2

(list continues)
SMILES	Calb biofilm kill
Cc1ccc(N2CCN(C(=O)N3CCOCC3)CC2)c(C)c1	10.2
COc1ccccc1NS(=O)(=O)c1ccc(N/N=C(\C)C(C)C)c([N+](=O)[O-])c1	10.2
CCCn1c(=N)c(C#N)cc2c(=O)n3cccc(C)c3nc21	8.3
COC(=O)c1ccc(N=NNc2ccccc2)cc1	8.0
COc1ccccc1Nc1ccc([N+](=O)[O-])cn1	0.7
Cn1c(CCc2ccc(N)cc2)nc2ccccc21	11.7
COc1cc(/C=C/C(=O)C2C(=O)C=C(C)OC2=O)cc(OC)c1O (stereo unspecified)	14.7
CCCCNC(=S)NNC(=O)c1nn(C)cc1Cl	12.4
Cc1ccc(NC(=O)/C(C#N)=C/c2ccsc2)c(C)c1	12.5
CCOC(=O)c1csc(NC(=O)Nc2cccc(Cl)c2)n1	14.5
CC(CN1CCCCC1)C(=O)NN (stereo unspecified)	-4.1
COc1ccc(/C=C/C(=O)c2ccc(O)cc2)cc1	12.3
Cc1ccc(NC2=C(CC(=O)O)C(c3ccccc3)N(c3ccc(C)cc3)C2=O)cc1 (stereo unspecified)	5.5
CCOc1ccc(N=Cc2c(O)c3ccccc3oc2=O)cc1	18.1
COC(=O)c1ccc2nccnc2c1	25.8
CSc1nc(N)c(C(=O)Nc2ccc([N+](=O)[O-])cc2)s1	12.1
O=C(COC(=O)/C=C/c1ccc(S(=O)(=O)N2CCOCC2)cc1)NCc1ccc(F)cc1	8.7
C(=N\Nc1nc(N2CCCC2)nc(N2CCCC2)n1)/c1ccccc1OCc1ccccc1	15.1
COc1ccc(N2CCN(C(c3ccc4ncccc4c3)c3nnnn3C(C)(C)C)CC2)cc1 (stereo unspecified)	11.3
O=C(CSc1c2c(nc3ccc(Cl)cc13)CCCC2)NCCCN1CCOCC1	15.4
CCOc1ccc(C(=O)NC(=S)Nc2cccnc2)cc1	18.4
CCCNC(=O)CSc1nc2ccc(OCC)cc2s1	14.9
OCCNC(=S)Nc1ccc2nsnc2c1	14.7
Cc1ccccc1NC(=O)CSc1ccc(-c2ccco2)nn1	11.5
CCc1ccc(C2=NNC(=Nc3cccc(S(=O)(=O)N(C)C)c3)SC2)cc1	22.7
O=C(/C=C/c1ccccc1)C1=C(O)C(=O)N(CCO)C1c1cccc([N+](=O)[O-])c1 (stereo unspecified)	27.1
Cc1ccc(C)c2[nH]c(=O)c(CN(CCCN(C)C)C(=O)NCc3ccccc3)cc12	9.8
CC1(O)C(=O)c2ccccc2N(c2ccccc2)C1=O (stereo unspecified)	17.6
CN(c1ccccc1)S(=O)(=O)c1ccc(NC(=O)c2ccco2)cc1	10.7
CCOc1ccc(/C=N/OCC(=O)Nc2ccc3c(c2)OCO3)cc1	9.2
N/C(=N\OC(=O)COc1ccc(Cl)cc1Cl)c1cccnc1	6.0
O=C(NCCCN1CCOCC1)C(=O)NCc1ccc(Cl)cc1	17.2
O=Cc1c(Cl)[nH]c(=O)n1-c1ccccc1	19.2
CCOc1ccc(-c2cc(C(=O)NCCCn3ccnc3)c3ccccc3n2)cc1	10.2
CCc1cccc(C)c1NC(=S)N(Cc1cccnc1)Cc1ccco1	20.8
Cc1cccc(N2CCN(C(=O)CN3C(=O)NC(C)(C)C3=O)CC2)c1C	18.2
CCc1ccccc1NC(=O)N1CCC(NC(=O)C(Cc2ccccc2)NC(C)=O)CC1 (stereo unspecified)	-3.5
COc1ccc(C2(CNC(=O)c3cccc([N+](=O)[O-])c3)CCOCC2)cc1OC	1.8
COc1ccccc1NC(=O)Nc1ccccc1C(=O)NCCCN1CCOCC1	7.1
O=C(CNC(=O)c1ccccc1)OCC(=O)N1c2ccccc2Sc2ccccc21	11.2
C=C(C)C(=O)Nc1cccc(C2=NOC3(C2)C[C@H](C(N)=O)N(C(=O)CC)C3)c1 (stereo partly specified)	11.1
O=C(CCC1CCCN(C(=O)c2ccc3c(c2)OCCO3)C1)NCc1ccccc1F (stereo unspecified)	13.8
Cc1ccc(CN(C(=O)Cc2cccs2)C(C(=O)NC2CCCC2)c2ccncc2)cc1 (stereo unspecified)	10.1
O=C(c1ccccc1NS(=O)(=O)c1ccc(F)cc1)N1CCc2ccccc21	5.6
O=C(Nc1ccc(OC(F)F)cc1)c1ccccn1	11.9
Cc1ccc(-c2nnn(CC(=O)N(Cc3cccs3)C(C(=O)NC3CCCC3)c3ccncc3)n2)cc1 (stereo unspecified)	16.4
Fc1ccc(NC(=S)N/N=C/c2ccc(F)c(F)c2)cc1	15.1
Cc1ccc(C(=O)N2CC3(C)CN(C(=O)c4ccc(C)cc4)CC(C)(C2)C3=O)cc1	6.5

Seven records drawn at random from those above:
SMILES	Calb biofilm kill
C/C(=N\NC(=O)c1ccc([N+](=O)[O-])cc1Cl)c1ccccc1	9.5
Cc1ccc(Nc2c(-c3ccccn3)nc3cccc(C)n23)cc1	18.2
Cc1ccc(NC(=O)/C(C#N)=C/c2ccsc2)c(C)c1	12.5
O=C(Nc1ccc(OCC(=O)N2CCOCC2)cc1)Nc1cccc2ccccc12	3.9
CCc1ccc(C2C(C#N)=C(N)N(N(C)C)C3=C2C(=O)CCC3)s1 (stereo unspecified)	10.6
CCOc1ccc(C(=O)NC(=S)Nc2ccc(NC(=O)c3ccco3)c(C)c2)cc1[N+](=O)[O-]	20.3
CCCCNC(=S)NNC(=O)c1nn(C)cc1Cl	12.4

Later entries.
SMILES	Calb biofilm kill
CCc1ccc(OCC(=O)N/N=C(\C)c2ccc3c(c2)OCCO3)cc1	7.7
COc1ccc(CNC(=O)CN2CCC(n3nnc4cc(F)ccc43)CC2)cc1	13.0
Cc1ccc(Cl)cc1N1CCN(S(=O)(=O)c2ccc3[nH]c(=O)c(=O)[nH]c3c2)CC1	7.0
CC(C)C[C@H](CO)Nc1nc(N(C)c2cccc(Cl)c2)c2ncn(C(C)C)c2n1	18.6
O=C(CCSCc1cccc(Cl)c1)NCCc1ccc(Cl)cc1	13.8
CC(=O)N(C(C)=O)N1C(=O)/C(=C/c2ccc(Cl)cc2)SC1=S	16.7
CCOc1ncccc1C(=O)Nc1nc(SC)ns1	7.2
COc1cc(C2NC(=S)NC(C)=C2C(=O)Nc2cc(C)cc(C)c2)ccc1O (stereo unspecified)	8.4
O=C(Cn1nnc(-c2ccccc2)n1)N1CCN(c2ccc(F)cc2)CC1	12.8
OC1(c2cccnc2)CCN(Cc2nnnn2Cc2ccccc2)CC1	20.6
CC(C)CC(=O)NC(C)C(c1cccs1)N1CCOCC1 (stereo unspecified)	20.5
N#Cc1c(-c2cccc(Br)c2)cc(-c2cccnc2)nc1N	11.2
O=[N+]([O-])c1c(C(Cl)Cl)nn(-c2ccccc2)c1N1CCOCC1	-8.1
Cc1ccc(N2C(=O)c3cccc(Oc4ccc(Cl)cc4)c3C2=O)c(C)c1	22.3
COc1cccc(CNC(=O)CSc2ccc(-c3ccco3)nn2)c1	8.5
OCCN1CCN(Cc2nc(-c3cccc(Cl)c3)no2)CC1	16.1
COc1ccc(-c2coc3cc(O)cc(O)c3c2=O)cc1	16.5
NC(Cc1ccc(OC(F)F)cc1)C(=O)O (stereo unspecified)	12.3
O=C(CN1CCN(S(=O)(=O)c2ccccc2F)CC1)NC1CCCC1	11.2
CCNC(=S)NCCN1CCOCC1	8.1
C=CCn1c(=O)c2ccc(C(=O)NCc3ccccc3)cc2n(Cc2cccc(Cl)c2)c1=O	13.8
C=CCNC(=S)NCC	8.1
Cc1ccc(OCCC(=O)N2CCN(c3ccc(O)cc3)CC2)cc1	5.6
C=CCn1c(O)c(N=O)c2ccccc21	16.1
CCOc1ccc(Oc2ccc(Cl)cc2N)cc1	12.6
O=C(COC(=O)c1ccccc1)Nc1cccc(S(=O)(=O)NC2=NCCCCC2)c1	10.9
Cc1cc(C)c(S(=O)(=O)N(C2=NCCS2)S(=O)(=O)c2c(C)cc(C)cc2C)c(C)c1	15.6
O=[N+]([O-])c1ccccc1OCCCNCc1ccccc1	8.2
CCC(=O)N1CCc2cc(S(=O)(=O)CCC(=O)Nc3ccc(C)c(F)c3)ccc21	17.8
O=C(Cn1cncn1)NCc1cc(F)ccc1F	13.8
O=C(Nc1nc2cc3c(cc2s1)OCCO3)c1cccs1	18.8
COCCOC(=O)C1=C(C)NC(=S)NC1/C=C/c1ccccc1 (stereo unspecified)	11.9
O=C(COC(=O)/C=C/c1cccs1)NC1CC1	5.2
CSc1nc(NC(C)=O)nc(C)c1Br	4.7
CC(=O)NCCc1nc2ccccc2n1CCOc1ccccc1C	21.2
O=c1[nH]c(CSc2ccccc2)nc2c1oc1ccccc12	18.9
Cn1c(SCc2cccc(Br)c2)nnc1-c1ccccn1	20.5
O=C1CCCc2cc3c(cc21)CC1(C3)Cc2cc3c(cc2C1)C(=O)CCC3	4.6
c1nc(Nc2ccc(N3CCOCC3)cc2)c2ccsc2n1	24.4
O=C(NCCC1=CCCCC1)c1cc(-c2ccccn2)nc2ccccc12	3.3
S=C(Nc1cccc(Cl)c1)N(CCCN1CCCC1)Cc1cccn1Cc1ccc(Cl)cc1	22.5
O=C(Nc1ccc(F)cc1)Nc1sccc1-c1nc2ccccc2s1	22.5
COc1ccc(/C=N/Nc2ncccc2[N+](=O)[O-])c(OC)c1	14.6
Cc1ccc(NC(=O)C2CCCN2C(=O)NCc2ccccc2)cc1 (stereo unspecified)	1.5
Cc1cc(C)n2nc(CC(=O)NCc3ccc(F)cc3)nc2n1	20.8
COc1ccccc1CNC(=O)[C@@H]1CCCN1S(=O)(=O)c1ccc(C)cc1	11.1
Cn1cc(C(=O)C(=O)N2CCN(c3ccccc3)CC2)c2ccccc21	12.2
CN1CCN(Cc2nc(Cc3ccccc3)no2)CC1c1ccccc1 (stereo unspecified)	-0.4
COCc1[nH][nH]c(=O)c1/C=N/N1CCOCC1	7.6
COc1cccc(C(=O)C2CCCN(Cc3c(C)n(C)n(-c4ccccc4)c3=O)C2)c1 (stereo unspecified)	25.1
